Source: PubChem
MT1-MMP act inh = blocks activation of human MT1-MMP; HT1080 RFP-PRO-GFP cells, GFP/RFP ratio fluorescence, overnight; percent of plate control window, DMSO zero; GFP/RFP ratio change, % at 20 µM; actives 0.061% (n = 360,000); AID 651647;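 active means GFP/RFP ratio change of at least 30% with cell ATP level not reduced by more than half and red fluorescence within 50% of control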; further: strong numbers were not always called active
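Assay system: RFP-PRO-GFP reporter HT1080 cells; read-out basis: GFP/RFP fluorescence ratio; benchmarks: DMSO wells and RFP-L50D-GFP cells; doses: 20 µM single dose, 1% DMSO; schedule: overnight cell settling, then overnight compound exposure, 37 °C, 5% CO2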
Yeast UUG start = yeast start codon fidelity modulation. AID 602363. S. cerevisiae UUG-firefly luciferase reporter, luminescence/redox ratio. actives 0.13% (n = 350,000). activity score, % at 18.7 µM;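 active means replicate mean at a twofold rise or more, about +100% in these data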;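 further: firefly luciferase made from a UUG start codon reports start codon fidelity; reporter light over untreated wells divided by growth signal over untreated wells; some hits fall short of that in this replicate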
MT1-MMP act inh RFP = further read-out of MT1-MMP act inh, marked with its call; RFP signal change, %; measured here: RFP expression control read;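 0 = vehicle wells; hits needed this value within 50% of zero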
Starred values were filed as active, the others as inactive; & = joins results of further samples. These rows are one share of the data; count on the stated rates, not on these rows.

MT1-MMP act inh	MT1-MMP act inh RFP	Yeast UUG start	SMILES
0.5	0.1	-18.4	CCCCCCn1c(COc2ccccc2F)nnc1SCC(=O)NC1CCS(=O)(=O)C1 (stereo not drawn)
4.6	-2.2	-3.8	CCC1([N+](=O)[O-])COC(c2ccc(OC)cc2)OC1 (stereo not drawn)
9.2	6.4	-4.1	Nn1cnc2c(ncn2C2OC(CO)C(O)C2O)c1=O (stereo not drawn)
-0.8	-2.1	-4.8	CC1(Cc2ccc(Cl)cc2)C(=O)Nc2c(Cl)cccc21 (stereo not drawn)
4.7	-1.1	-5.9	CCc1sc(C(=O)Nc2cccc(-n3cnnn3)c2)cc1C
-10.9	-8.3	-6.2	COc1ccc(OC(F)(F)F)cc1CC1(C)C(=O)Nc2c(Cl)ccc(Cl)c21 (stereo not drawn)
3.7	5.9	-27.1	Cc1ccc(C)c(NC(=O)c2cc(S(=O)(=O)N3CCCCC3)ccc2N2CCOCC2)c1
1.3	-4.2	-6.8	O=C(NCc1ccc(F)cc1)c1cc(C2CCCCN2S(=O)(=O)c2ccccc2)on1 (stereo not drawn)
3.5	6.3	-15.4	c1ccc2c(c1)ccc1ccccc12
1.7	4.7	-11.3	CC1CN(C(=S)Nc2ccccc2)C(C)CN1C=O (stereo not drawn)
1.1	0.8	-9.1	O=C(NN=Cc1ccc([N+](=O)[O-])cc1)C1CC1
7.2	3.4	3.8	CNC[C@@H]1OCc2ccccc2-c2c(n(C)c3ccccc23)C(=O)N([C@H](C)CO)C[C@@H]1C
1.4	3.9	-22.0	CC12CCC(C(NC(=S)NN)C1=O)C2(C)C (stereo not drawn)
-1.7	-2.2	-2.9	O=C(Nc1cc(Cl)ccc1N1CCOCC1)c1ccc(F)c(S(=O)(=O)N2CCOCC2)c1
-0.4	-4.0	-13.5	COC(=O)N1CCCCC1c1cc(C(=O)Nc2ccc3c(c2)OCO3)no1 (stereo not drawn)
14.4	-4.0	18.6	C=C1CCCC2OC(CC3=CC4/C(C)=C/CC(C)CC(/C=C(\C)C(O)C5CC(O)C(O)C(CCC(O)/C=C/C(C)=C/CCC6=NCCC(C3)C64C)O5)OC(=O)CC3OC(C(O)C1)C(O)C3O)CC(O)C2O (stereo not drawn)
1.7	1.6	2.5	CC1=C(C(=O)N(C)C)CC(CC(=O)NCCN2CCOCC2)C(=O)N1Cc1ccc(C(C)(C)C)cc1 (stereo not drawn)
-0.1	0.2	2.5	CC(C)CC1C(=O)N(Cc2cn(Cc3ccco3)nn2)CCS(=O)(=O)N1Cc1ccc(-c2cccc(CO)c2)cc1 (stereo not drawn)
-1.9	1.0	10.5	O=S(=O)(Nc1cccc(S(=O)(=O)N2CCCCC2)c1)c1ccc(Cl)s1
-1.3	-5.9	7.7	CSc1ccc(CN(C)C(=O)c2ccc(S(=O)(=O)Nc3c(C)n(C)n(-c4ccccc4)c3=O)cc2)cc1

The list goes on.
MT1-MMP act inh	MT1-MMP act inh RFP	Yeast UUG start	SMILES
-1.5	-0.1	3.2	CCCCCC(=O)N1C[C@@H](n2cc(C3CC3)nn2)[C@H](O)C[C@@H]1c1ccc(C)cc1
0.5	5.2	-24.8	COc1cc(N)c2ncccc2c1Br
1.3	-0.3	3.9	Cc1cccc(NC(=O)c2ncn3c2C(=O)NC[C@H]3C)c1
-0.7	4.9	-11.5	O=S(=O)(NCCc1ccccn1)c1cc(Cl)cc(Cl)c1O
-0.5	4.5	-12.8	CN1C(=O)N(CC(=O)N2CCN(c3ncccn3)CC2)C(=O)C12CCCCC2
9.4	3.5	-5.8	O=C(CNC(=O)c1cccc(S(=O)(=O)N2CCc3ccccc32)c1)Nc1ccccc1Br
5.1	1.1	7.4	COC(=O)c1cn(C)c2ccc(S(=O)(=O)N(C)C3CCCCC3)cc2c1=O
4.9	2.9	-17.7	CC(=O)Nc1ccc(NC(=O)c2ccc(-c3ccnn3C)c3ccoc23)cc1
1.4	-0.9	18.0	COc1ccc(S(=O)(=O)NC(C(=O)OCC(=O)Nc2ccc(N3CCOCC3)cc2)C(C)C)cc1 (stereo not drawn)
-1.3	-8.8	-12.0	COc1ccccc1OCCNC(=O)c1cccc(S(=O)(=O)N2CCN(Cc3ccccc3)CC2)c1
6.2	-7.2	-10.4	CNc1nc(NCCOc2ccccc2)c2sccc2n1
0.7	0.2	-9.7	O=C(NNC(=O)c1cc(Br)ccc1O)c1csc(N2CCOCC2)n1
0.0	-0.5	3.3	CCCN(CC(=O)Nc1ccccc1C)C(=O)C1CCCN(C(=O)c2ccc(Cl)cc2)C1 (stereo not drawn)
-3.1	-5.2	-4.9	CC1CC(C)(C)CC2(C1)NC(=O)N(CC(=O)N1CCN(S(=O)(=O)c3cccc(Cl)c3Cl)CC1)C2=O (stereo not drawn)
1.0	2.5	-17.6	CCC(CC)NC(=O)CSc1ccc(S(=O)(=O)N2CCOCC2)cn1
-1.7	1.3	0.4	CC[C@]12c3[nH]c4cc(-c5ccco5)ccc4c3CCN1C(=O)[C@@H](CC(=O)NCc1ccco1)C[C@@H]2C(=O)N1CCN(C(=O)C2CC2)CC1
-4.2	0.4	-6.4	COc1ccc(C(=O)COC(=O)CCn2c(C)csc2=O)c(OC)c1
-0.4	9.3	-21.2	Cc1nc2nc(C)c(C)nc2nc1C
-3.1	-8.7	1.6	CN(C)c1ccc(C(O)c2cc3ccccc3s2)cc1 (stereo not drawn)
1.2	1.4	1.7	COc1ccccc1C(=O)NCC(=O)OC(C)C(=O)NC1CCCCC1C (stereo not drawn)

Further compounds:
MT1-MMP act inh	MT1-MMP act inh RFP	Yeast UUG start	SMILES
-1.4	3.8	-11.3	CCN(C(=O)COC(=O)c1cccc(S(=O)(=O)N(C)C)c1)c1c(N)n(Cc2ccccc2)c(=O)[nH]c1=O
1.3	0.2	-10.8	COCCN(C(=O)CC1CCCC1)c1c(N)n(CC(C)C)c(=O)[nH]c1=O
3.5	2.9	-7.5	Cc1ccc(S(=O)(=O)N2C[C@H]3[C@H]4C(=O)N(c5ccccc5)C(=O)[C@H]4CC(=O)[C@H]3[C@@H]2c2ccc(Cl)cc2)cc1
0.6	4.2	-7.3	Cc1cn(CC(=O)NCC(C)c2ccccc2)c(=O)[nH]c1=O (stereo not drawn)
-3.6	-4.6	-18.2	CC1(C)C[C@H]2C3=CCC4[C@@]5(C)CC[C@H](O)[C@](C)(CO)C5CC[C@@]4(C)[C@]3(C)C[C@@H](O)[C@@]2(CO)[C@@H](O)[C@@H]1O (stereo partly drawn)
-6.4	3.6	15.4	Cc1ccc(S(=O)(=O)NC(=O)C2(C)CCN2C(=O)C2(c3ccc(Cl)cc3)CC2)cc1 (stereo not drawn)
2.7	3.4	-2.3	Cc1ccc(C)c(NC(=O)CN(C)C(=O)C2CCCC2)c1
-0.4	-4.0	3.9	CC(=O)N1CCN(C(=O)c2ccc(S(=O)(=O)Nc3ccccc3F)cc2)CC1
-0.2	-6.6	12.9	COc1ccc(NC(=O)C2(C)CCN2C(=O)c2ccccc2CCc2ccccc2)cc1OC (stereo not drawn)
9.4	3.7	-10.8	O=C(NN1C(=O)NC2(CCCCC2)C1=O)c1ccc(-c2ccc(Cl)cc2)o1
1.9	4.7	-4.4	COCOCCn1cc(CN2CCS(=O)(=O)N(Cc3ccc(-c4ccc(C)cc4)cc3)C(CC(C)C)C2=O)nn1 (stereo not drawn)
-0.4	2.1	-8.4	CCOC(=O)C1(C)CCCN(C(=O)c2cccs2)C1 (stereo not drawn)
-5.5	-3.5	-15.9	CC(=O)c1ccc(S(=O)(=O)N2CCN(c3nc(-c4cccnc4)nc4ccccc34)CC2)cc1
-1.9	-1.9	-5.2	CCOc1ccc(NS(=O)(=O)c2ccc(C(=O)N(C)CC(=O)Nc3ccccc3Br)cc2)cc1
0.7	0.4	-1.3	O=C(Cc1c[nH]c2ccccc12)NCC(=O)Nc1ccc(F)c(F)c1F
-8.4	-6.0	-8.2	Cc1ccc(C)c(S(=O)(=O)N2CCN(c3nc(-c4cccnc4)nc4ccccc34)CC2)c1
2.3	2.7	-8.4	Cc1ccc(Cl)cc1NC(=O)COC(=O)CN1C(=O)C2CCCCC2C1=O (stereo not drawn)
2.0	-7.0	10.8	COCC1CCN(C(=O)c2ccc3nc(Cc4cccc(Cl)c4)oc3c2)CC1
2.8	2.8	-4.9	CCC(=O)Nc1ccc(C(=O)COC(=O)Cc2ccsc2)cc1
0.0	-3.6	-1.8	Cc1ccc([C@H]2C[C@H](O)[C@@H](n3cc(C4CC4)nn3)CN2Cc2cccs2)cc1

Next section:
MT1-MMP act inh	MT1-MMP act inh RFP	Yeast UUG start	SMILES
-3.0	-2.7	-7.8	O=C(CN1CCN(S(=O)(=O)c2ccc(F)c(F)c2)CC1)Nc1ccccc1C(=O)NC1CC1
0.3	0.8	-20.8	CCCCCCCCNS(=O)(=O)CCNCCCC
3.9	2.6	-12.9	COc1ccc(CNCCS(=O)(=O)NC2CCCCC2)cc1
10.2	9.6	-5.1	CSc1ncnc2c1ncn2CCCNCC1CCCCC1
1.3	-3.0	-42.7	CCn1c(C)cc(C(=O)CSc2nnc(-c3ccco3)o2)c1C
1.9	-1.0	-10.1	Cc1ccc(NC(=O)CN2CCN(C(=O)c3ccco3)CC2)cc1S(=O)(=O)N(C)C
3.5	7.0	-15.6	CCNC(=O)C1(C)CCN(C(=O)c2cc(C)oc2C)C1 (stereo not drawn)
-4.0	-0.2	-32.0	O=C(CNC(=O)c1ccc2c(c1)OCO2)Nc1cccc(Br)c1
-1.1	-2.7	-13.5	CCc1noc(C)c1C(=O)NNC(=O)COc1cc(C)ccc1C
5.6	-1.4	-4.6	CCOc1ccc(NC(=O)c2ccc(NC(=O)c3ccccc3Br)cc2)cc1
2.7	2.9	-3.4	CC1=C(C(=O)N2CCOCC2)CC(CC(=O)NCCc2ccccn2)C(=O)N1CCC1=CCCCC1 (stereo not drawn)
-2.2	1.3	-5.2&14.2	C[C@@H]1CN([C@H](C)CO)C(=O)CCCn2cc(nn2)CO[C@H]1CN(C)C(=O)Nc1cccc(F)c1
2.8	3.1	-8.7	O=C(CNS(=O)(=O)c1ccccc1F)OCC(=O)c1c[nH]c2ccccc12
0.1	0.0	-0.7	COC(=O)C1CCN(CC(=O)Nc2ccc(C(=O)Nc3ccccc3OC)cc2)CC1
-0.1	3.3	-0.2	CCN(CC(=O)Nc1ccc(NC(C)=O)cc1)C(=O)/C=C/c1ccc(C)o1
4.7	1.4	-8.6	CC(=O)Nc1ccc(Nc2nc3ccccc3nc2NS(=O)(=O)c2ccc(Cl)c([N+](=O)[O-])c2)cc1
-2.0	-1.1	7.8	Cc1ccccc1OCCC(=O)Nc1ccccc1C(=O)N1CCCCC1
-3.6	-18.8	-4.4	CN(CCc1ccccc1)C(=O)c1ccc(NC(=O)Cc2ccc(NC(=O)C3CCN(C(=O)C4CCCCC4)CC3)cc2)cc1
0.8	0.7	-19.9	Cn1c(CC(=O)NNC(=O)c2ccccc2[N+](=O)[O-])nc2ccccc21
3.1	1.1	-18.3	CN(CC(=O)N(C)CC(=O)Nc1c(Cl)cccc1Cl)Cc1ccc(Br)s1

Sorted by SMILES length (smallest number first): some entries from above
MT1-MMP act inh	MT1-MMP act inh RFP	Yeast UUG start	SMILES
0.3	0.8	-20.8	CCCCCCCCNS(=O)(=O)CCNCCCC
3.9	2.6	-12.9	COc1ccc(CNCCS(=O)(=O)NC2CCCCC2)cc1
3.5	7.0	-15.6	CCNC(=O)C1(C)CCN(C(=O)c2cc(C)oc2C)C1 (stereo not drawn)
1.3	-3.0	-42.7	CCn1c(C)cc(C(=O)CSc2nnc(-c3ccco3)o2)c1C
3.1	1.1	-18.3	CN(CC(=O)N(C)CC(=O)Nc1c(Cl)cccc1Cl)Cc1ccc(Br)s1
1.9	-1.0	-10.1	Cc1ccc(NC(=O)CN2CCN(C(=O)c3ccco3)CC2)cc1S(=O)(=O)N(C)C
2.7	2.9	-3.4	CC1=C(C(=O)N2CCOCC2)CC(CC(=O)NCCc2ccccn2)C(=O)N1CCC1=CCCCC1 (stereo not drawn)

Next entries
MT1-MMP act inh	MT1-MMP act inh RFP	Yeast UUG start	SMILES
0.3	-0.3	-1.4	COc1ccc(Cl)cc1NC(=O)COC(=O)c1ccc(Cl)nc1
4.6	4.2	7.4	COc1ccc(C(=O)OCC(=O)Nc2cccc(S(=O)(=O)N3CCCCCC3)c2)cc1[N+](=O)[O-]
5.3	5.9	-19.5	C[C@]1(CC/C(=C/CO)CO)[C@H](C=O)CC[C@@]23COC(=O)C2=CCC[C@@H]31
-2.8	-2.3	-24.5	Cc1cc(F)ccc1-c1cc(C(=O)Nc2ccc(F)cc2)[nH]n1
7.0	-1.0	-3.1	Nc1ccc2c(c1)[nH]c(=O)c1cc(N)ccc12
-0.5	-2.0	2.9	O=C(NCc1ccc(F)cc1)c1cc(C2CCCCN2C(=O)OCCF)on1 (stereo not drawn)
-2.1	3.5	-5.6	Cc1ccc(S(=O)(=O)N2CCCCC2)cc1NC(=O)C1CC(=O)N(Cc2ccco2)C1 (stereo not drawn)
-4.2	-18.1	9.0	CCc1nc2ccc(C(=O)Nc3cc(-c4ccccc4)ccc3OC)cn2c1N(C)Cc1nccs1
-2.4	-6.7	-9.1	CCC(CC)C(=O)N(C)c1c(C)nc2c(OCc3ccccc3C)cccn12
-7.1	-7.0	-13.6	COc1ccccc1-c1sc2ccccc2c1-c1ccc(OCCN2CCCCC2)cc1
-1.2	-1.7	-16.2	O=C(Nc1ccccc1)C1CCCN(C(=O)c2ccc(F)cc2)C1 (stereo not drawn)
